Screens as filed in PubChem BioAssay.
VDR inh: vitamin D3 receptor (human) inhibition; AID 504847; Potency, µM, without a hit: max response, negative = inhibition, actives largely listed as inhibitors; actives 0.93% (n = 400,000); VDR-SRC2-3 peptide fluorescence polarization, 2 h; active means well fitted inhibition curve with a large enough effect; inconclusive means small, poorly fitted or top-dose-only effect, or another doubt; inactive means no such curve, though single readings can be large or run the other way; further: series mostly up to about 120 µM
Target sequence (P11473 whole entry, looked up): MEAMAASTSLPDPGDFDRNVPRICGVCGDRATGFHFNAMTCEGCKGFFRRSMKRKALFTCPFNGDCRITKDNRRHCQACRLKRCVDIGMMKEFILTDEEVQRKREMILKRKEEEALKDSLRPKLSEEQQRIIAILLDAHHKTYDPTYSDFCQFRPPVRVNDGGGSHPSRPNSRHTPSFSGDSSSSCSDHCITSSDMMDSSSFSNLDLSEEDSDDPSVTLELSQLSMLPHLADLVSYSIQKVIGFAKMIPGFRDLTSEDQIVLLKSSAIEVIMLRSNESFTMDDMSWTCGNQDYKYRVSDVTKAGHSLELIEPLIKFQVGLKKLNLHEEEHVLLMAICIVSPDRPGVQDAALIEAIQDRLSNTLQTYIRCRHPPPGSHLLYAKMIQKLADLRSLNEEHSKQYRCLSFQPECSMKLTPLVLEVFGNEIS
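FP read-out; VDR + SRC2-3 coactivator peptide; 23 nl compound by pintool; 2 h RT incubation; reagents held at 4 deg C, protected from light.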
* marks the source's active call; other numbers are inactive results; ? = inconclusive. On the % scale 0 is the no-effect control and ±100 the full control effect; potency means the concentration at half of the fitted maximal effect.

SMILES	VDR inh
O=C(Nc1cccc(C(=O)N2CCCCC2)c1)c1ccccc1	-10%
CCC(CC)c1nnc(NC(=O)CS(=O)(=O)c2ccc(C)cc2)s1	45µM*
COc1ccc(N2CCN(C(=O)c3cccc(NC4=NC5CS(=O)(=O)CC5S4)c3)CC2)cc1 (configuration not stated)	-3%
O=C(N/N=C/c1ccccn1)c1cc(-c2cccc3ccccc23)n[nH]1	-10%
COc1ccc(CNC(=O)COCc2cc(-c3cccs3)on2)cc1	9%
CCN(CC)C(=O)c1cc2c(=O)n3cccc(C)c3nc2s1	-9%
Cc1ccc(S(=O)(=O)N(C)C)cc1NC(=O)COC(=O)COc1ccc2c(C)cc(=O)oc2c1	?
Cc1nc2sc(C(c3ccccc3)N3CCOCC3)c(O)n2n1 (configuration not stated)	18%
O=C(NCc1ccccn1)c1ccc(CNS(=O)(=O)c2cccc(C(F)(F)F)c2)cc1	-12%
CCCOc1ccc(-c2c(=O)n(O)c3ccccc3[n+]2[O-])cc1	-4%
O=C(CSc1nnc2ccc(-c3ccccn3)nn12)Nc1ccccc1	5%
CC[n+]1c(/C=C/Nc2ccccc2)oc2ccc(OC)cc21	-7%
O=C(NC1CCCCC1)C1CCCN1S(=O)(=O)c1ccc(F)cc1 (configuration not stated)	0%
CCN(CC(=O)Nc1cc(Cl)ccc1C)C(=O)COc1cccc2c1OC(C)(C)C2	?
Cc1ccc(NC(=S)N(CCN2CCOCC2)Cc2cc3cc4c(cc3[nH]c2=O)OCO4)cc1	4%
COc1ccc(C(=O)N/C(=C\c2cccs2)c2nc3ccccc3[nH]2)cc1OC	-1%
CC(C)C(=O)N1CCN(c2ccccc2NC(=S)NC(=O)c2cccs2)CC1	-3%
O=C(CC1NCCNC1=O)Nc1ccccc1F (configuration not stated)	-6%
O=C(Nc1ccc(Cl)cc1)N1CCSCC1	5%
CCCCOc1cccc(C(=O)Nc2ccc(S(=O)(=O)Nc3nnc(CC)s3)cc2)c1	-22%
CCN(CC)S(=O)(=O)c1ccc(Cl)c(C(=O)NCc2ccco2)c1	-5%
Cc1cc(/C=N/NC(=O)c2ccc(O)cc2)c(C)n1CC(C)C	1%
O=C(CN1C(=O)NC(Cc2ccccc2)C1=O)Nc1ccc(OC(F)(F)F)cc1 (configuration not stated)	-11%
Cc1ccc2nc(Cl)c(C3CC(c4ccco4)=NN3S(C)(=O)=O)cc2c1 (configuration not stated)	-9%
Cc1ccc(N2C(=O)C3C(C2=O)C2C=CC3C23CC3)cc1 (configuration not stated)	1%

Going on with the list:
SMILES	VDR inh
CC(c1nnc(SCC(=O)Nc2sccc2C#N)n1-c1ccc(Cl)cc1)N(C)C (configuration not stated)	6%
Cc1cccc(C(=O)Nc2nnc(C3=COCCO3)o2)c1	1%
Cc1cc(N)n2ncc(-c3ccccc3)c2n1	15%
COc1cc2ccccc2cc1C(=O)N1CCN(c2nc3ccc(F)cc3s2)CC1	-3%
Cc1ccccc1NC(=S)NCc1ccccc1	0%
COc1ccc(CCn2c(N3CCN(Cc4ccccc4)CC3)nc3c2c(=O)[nH]c(=O)n3C)cc1	-7%
O=C(OCC(=O)N1CCN(c2ccccc2)CC1)c1ccncc1	-2%
COC(=O)c1ccc(NC(=O)C23CC4CC(C2)CC(n2cncn2)(C4)C3)cc1	-5%
Cc1ccc(S(=O)(=O)N2CCN(C(=O)c3cc4c(C)nn(-c5ccccc5)c4s3)CC2)cc1	-10%
O=C(c1ccc(N2C(=O)C3CC=C(Cl)CC3C2=O)cc1)N1CCCCC1 (configuration not stated)	4%
Cc1c(C(=O)Nc2ccc(F)cc2F)nnn1-c1ccccc1Br	14%
Cc1nn(CC(=O)Nc2ccc(Cl)cn2)c(C)c1[N+](=O)[O-]	-4%
CCOc1ccccc1-c1nc(-c2ccncc2)no1	7%
Cc1cc(C)c2c(c1)/C(=N\N=c1\sc3ccccc3n1C)C(=O)N2	7%
C/C(=N\Nc1nncc2ccccc12)c1ccc(O)cc1	-13%
O=C(c1cc2ccccc2oc1=O)N1CCCN(C(=O)c2cc3ccccc3oc2=O)CC1	13%
CN1/C(=C\C=N\NC(=O)c2ccc(O)cc2)C(C)(C)c2ccccc21	-10%
COc1ccc(-c2nc(C#N)c(NCCc3ccccc3)o2)cc1	1%
COc1ccc(CN2CCN(C(=O)c3cccnc3)CC2)cc1Br	-2%
CCN(CC)S(=O)(=O)N1CCC(C(=O)NCCC2=CCCCC2)CC1	2%
O=[N+]([O-])c1cc([N+](=O)[O-])c(Oc2cc(F)cc(F)c2)cc1NN1CCCCC1	-28%
Nc1ncnc(Nc2ccccn2)c1[N+](=O)[O-]	-6%
COC(=O)C1=NN(c2cccc(C)c2)C2C(=O)N(c3ccccc3OC)C(=O)C12 (configuration not stated)	-8%
O=C(CCc1cn(Cc2ccccc2F)c2ccccc12)NCc1ccc(Cl)cc1	6%
O=C(c1cc2cc3ccc(Cl)cc3nc2o1)N1CCN(c2cccc(Cl)c2)CC1	-16%

Four entries already listed, sorted by the value under VDR inh, falling:
compound	VDR inh
Cc1cc(N)n2ncc(-c3ccccc3)c2n1	15%
O=C(OCC(=O)N1CCN(c2ccccc2)CC1)c1ccncc1	-2%
Cc1ccc(S(=O)(=O)N2CCN(C(=O)c3cc4c(C)nn(-c5ccccc5)c4s3)CC2)cc1	-10%
O=C(c1cc2cc3ccc(Cl)cc3nc2o1)N1CCN(c2cccc(Cl)c2)CC1	-16%

(further entries)
SMILES	VDR inh
COC(=O)[C@H](CCSC)NC(=O)NC1CC1	-5%
CSc1ncccc1-c1nc2ccccc2[nH]1	-7%
COc1cc2c(cc1NC(=O)COc1ccc(Cl)cc1Br)oc1ccccc12	-8%
Cc1cccc2cc(CN(Cc3cccs3)C(=S)NCC3CCCO3)c(=O)[nH]c12 (configuration not stated)	-2%
Cc1ccc(S(=O)(=O)N(CC(=O)Nc2ccc(Cl)cc2Cl)c2ccccc2C)cc1	0%
CN(C)S(=O)(=O)N1CCC(Oc2ccc(C(=O)N3CCCCCCC3)cc2)CC1	9%
Cn1c(=O)c2c(nc(SCCN3CCOCC3)n2Cc2ccc(Cl)cc2)n(C)c1=O	8%
Cc1cc(NC(=O)CN2CCCC(C)C2)no1 (configuration not stated)	7%
O=C(c1ccc(-c2cccc(C(F)(F)F)c2)o1)N1CCN(c2ccccc2)CC1	-5%
Cc1ccccc1NC(=O)Cn1cc(C(=O)C2CC2)c2ccccc21	8%
Cc1nc(/N=C\N(C)C)sc1C(=O)Nc1ccccc1	18%
O=C(NCc1ccccc1C(F)(F)F)c1cccc2c1C(=O)c1ccc(N3CCOCC3)cc1S2(=O)=O	-14%
NS(=O)(=O)c1ccc(NNC(=O)c2ccccc2C(=O)O)cc1	-18%
O=[N+]([O-])c1cccc(NC(=S)N2CCc3ccccc3C2)c1	?
COc1cccc(CC2(CO)CCCN(C/C=C/c3ccccc3OC)C2)c1 (configuration not stated)	2%
Cc1ccc(NC(=O)C2CCN(C(=O)c3sc4nc[nH]c(=O)c4c3C)CC2)cc1F	-3%
O=C(Nc1ccc(F)c([N+](=O)[O-])c1)C1CC(=O)N(Cc2ccccc2)C1 (configuration not stated)	-2%
COc1ccccc1N1CCN(C(=O)c2cc(-c3ccco3)on2)CC1	0%
O=Cc1ccc(-c2nc3ccccc3s2)o1	5%
CC(C)c1ccc2c(c1)C(c1ccc(N3CCOCC3)cc1)=NNC(c1cccs1)=N2	-14%
CCC(=O)N1CCc2cc(S(=O)(=O)CCC(=O)Nc3ccc(CC)cc3)ccc21	6%
CN1C(=O)[C@H]2[C@@H](c3ccc(F)cc3)N3C(=O)c4ccccc4NC(=O)[C@@]3(C)[C@H]2C1=O	-16%
CCCCn1c(N)c(N(CCOC)C(=O)c2cccc(N3C(=O)c4ccccc4C3=O)c2)c(=O)[nH]c1=O	0%
COCCCNC(=O)c1cc(-c2cccnc2)nc2ccc(S(=O)(=O)N3CCCCCC3)cc12	0%
O=Nc1c(O)n(Cc2cccc(Cl)c2)c2ccccc12	0%

Molecules above that have an aryl thioether with sulfur outside any ring:
SMILES	VDR inh
O=C(CSc1nnc2ccc(-c3ccccn3)nn12)Nc1ccccc1	5%
CC(c1nnc(SCC(=O)Nc2sccc2C#N)n1-c1ccc(Cl)cc1)N(C)C (configuration not stated)	6%
CSc1ncccc1-c1nc2ccccc2[nH]1	-7%
Cn1c(=O)c2c(nc(SCCN3CCOCC3)n2Cc2ccc(Cl)cc2)n(C)c1=O	8%

(next part)
SMILES	VDR inh
CS(=O)(=O)N1CCC2(CC1)CN(C(=O)Nc1ccccc1)C2	5%
Cc1ccccc1C(=O)Nc1ccc(C(=O)NNC(=O)CCCOc2ccc(Cl)cc2Cl)cc1	-3%
CC(C)C(O)(C#CCN1CCCCC1)C(C)C	3%
O=C(COc1cccc2c1CCN(Cc1ccc(Br)cc1)C2=O)NCc1ccco1	-17%
Cc1ccc2oc(=O)c3cnn(CC(=O)NCCN(C)C)c3c2c1	-10%
CN(C)/C=N/C(=S)Nc1ccc(Cl)c(Cl)c1	?
O=S1(=O)CCC(NS(=O)(=O)/C=C/c2ccccc2)C1 (configuration not stated)	6%
CCn1nnnc1SCC(=O)Nc1ccc(F)cc1	-1%
Cc1oc(C(=O)O)cc1COc1cccc2cccnc12	-3%
Cc1nc(N2CCOCC2)nc(N2CCN(c3ccccc3)CC2)c1[N+](=O)[O-]	-8%
Cc1ccc(-n2c(SCC(=O)Nc3cccc(C)c3)nc3c(oc4ccccc43)c2=O)cc1	-8%
CC1=C(C(=O)Nc2cccc(C(=O)N3CCC(C(N)=O)CC3)c2)SCCO1	-1%
Cc1ccc(S(=O)(=O)c2ccc(NC(=O)c3c(F)cccc3F)cc2)cc1	-5%
CC(C(=O)N(C)C)N1c2cccc3cccc(c23)S1(=O)=O (configuration not stated)	-24%
O=C(N/N=C/c1cccc([N+](=O)[O-])c1)c1ccccc1-n1cccc1	-3%
Cn1nc(CC(=O)NCCN2C(=O)CSC2=O)c2ccccc2c1=O	-1%
COc1cc(NC(=S)Nc2ccc(OC(F)F)cc2)cc(OC)c1	4%
Cc1c(Cl)cccc1N1CC(C)(C)C1=O	-14%
Cc1ccc(S(=O)(=O)N2CCOCC2)cc1C(=O)NC(=S)N(Cc1ccccc1)C(C)C	-16%
CCN1C(=O)[C@H]2[C@@H](c3ccc(-c4ccccc4)cc3)N[C@@](Cc3ccccc3)(C(=O)OC)[C@H]2C1=O	10%
COc1ccc(S(=O)(=O)N2CCCCCC2)cc1NC(=O)Cc1cc(OC)c(OC)c(OC)c1	-9%
NCCCN(Cc1ccc(Cl)c(Cl)c1)c1ccc(Br)cn1	8%
CCN(CC)S(=O)(=O)c1ccc2oc(C(=O)NC(C)C)c(C)c2c1	-10%
COc1cc(C(CC(=O)N2CCOCC2)c2c(OC)cc(OC)c3c(-c4ccccc4)cc(=O)oc23)cc(OC)c1OC (configuration not stated)	-12%
CN(C)CCCN(C(=O)c1ccc(S(=O)(=O)N2CCc3ccccc3C2)cc1)c1nc2ccc(F)cc2s1	1%

Four entries from above, ordered by length of the SMILES, ascending:
SMILES	VDR inh
Cc1ccc2oc(=O)c3cnn(CC(=O)NCCN(C)C)c3c2c1	-10%
Cn1nc(CC(=O)NCCN2C(=O)CSC2=O)c2ccccc2c1=O	-1%
Cc1ccc(S(=O)(=O)N2CCOCC2)cc1C(=O)NC(=S)N(Cc1ccccc1)C(C)C	-16%
CCN1C(=O)[C@H]2[C@@H](c3ccc(-c4ccccc4)cc3)N[C@@](Cc3ccccc3)(C(=O)OC)[C@H]2C1=O	10%

Next section
SMILES	VDR inh
COc1ccc(CN(C(=O)/C=C/c2ccccc2Cl)C2CCS(=O)(=O)C2)cc1 (configuration not stated)	-31%
Cc1cc(NC(=O)c2ccc(Cl)cc2Cl)n(-c2ccccc2)n1	-16%
Cc1cccc(-n2c(=S)[nH]c3c(oc4ccccc43)c2=O)c1	-17%
Cc1c(-c2ccccc2)[n+](=O)c2c(n1[O-])CCCCC2	-9%
CCN1CCN(Cc2c(O)ccc3cc(-c4ccc(OC)cc4)c(=O)oc23)CC1	16%
Cc1cc(C(=O)N/N=C/c2cccnc2)cs1	-10%
Cc1ccc(NC(=O)CNC(=O)Cc2cccc3ccccc23)c(O)c1	8%
CNC(=S)NNC(=O)c1sccc1OCc1ccc(Cl)cc1Cl	0%
Cc1cccc(OC(=O)c2sc3ncn(C)c(=O)c3c2C)c1	7%
O=C(C1CCCN(Cc2cccc(F)c2)C1)N1CCCCC1 (configuration not stated)	-24%
NC(=O)CNC(=O)[C@@H]1CC2(CC(c3ccc(Cl)cc3)=NO2)CN1C(=O)c1ccc(Br)cc1 (some centres not stated)	-9%
O=C(Nc1ccccc1-c1nnn(CC(=O)N2CCc3ccccc3C2)n1)C1CCC1	-3%
O=C(CNCCC1=CCCCC1)Nc1ccccc1N1CCCCCC1	-20%
O=C(NC1CCCCCCC1)c1cccc(Cl)c1	-14%
COC(=O)c1ccc(COC(=O)C(NC(=O)Cc2ccccc2)C(C)C)cc1 (configuration not stated)	-1%
CC[C@@H](C)[C@@H]1CN([C@@H](CN2CCC[C@H]2CN2C(N)=NC[C@H]2C(C)C)C(C)C)C(=N)N1CCCC1CCCC1	20%
COc1ccc(N/N=C(/C(C)=O)N2CCCc3ccccc32)cc1	2%
Cc1cc2n(n1)C(c1cn(-c3ccccc3)nc1C)Nc1ccccc1-2 (configuration not stated)	-2%
COC(=O)CSc1nc(N)nc(C)c1Br	4%
COc1ccc(-n2c(-c3ccc(OC)c(OC)c3)n[nH]c2=S)cc1	1%
COc1cc(NS(=O)(=O)c2cc(Br)cc3c2N(C(C)=O)C(C)C3)cc(OC)c1 (configuration not stated)	-2%
O=[N+]([O-])c1cc(C(F)(F)F)ccc1Sc1ccccn1	5%

Structures listed above that bear a hit mark in VDR inh.
SMILES	VDR inh
CCC(CC)c1nnc(NC(=O)CS(=O)(=O)c2ccc(C)cc2)s1	45µM*

Only part of the results is shown; count on the stated rates, not on these rows.
